T cruzi repl = inhibitors of intracellular T. cruzi growth, primary screen, luminescence, NIH3T3 host cells; T. cruzi beta-gal in NIH3T3, 90 h; inhibition, % (concentration not given with the values); 1.4% of 300,000 active; AID 1885, 2009;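 active means mean inhibition across valid replicates above about 55%, limit read from the data; inconclusive means mean below that limit but half or more replicates reach it; inactive means mean below it, under half of replicates reach it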;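 further: signal also drops with host cell toxicity which is not excluded here; 0% = plate median of DMSO wells and 100% = zero luminescence signal; higher percent means less beta-gal luminescence so fewer parasites; stock transfer was 50 nL into about 50 µL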
Beta cell apopt = inhibitors of cytokine-induced beta cell apoptosis, primary screen, luminescence; 0.8% of 300,000 active; INS-1E cytokine-induced death, ATP luminescence, 48 h; percent of positive-control rescue, neutral wells zero; AID 435005, 2010; protection from apoptosis, % (test concentration not listed);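 active means all replicates at 75% or more, or half of them and the mean; inconclusive means half reach 75% but not the mean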;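 further: 0% = cytokine-treated negative control wells and 100% = positive control rescue; higher means more ATP so stronger rescue from cytokine killing; wells of about 40 µL received 100 nL stock; the first replicate is given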
Ecoli rRNA inh = reduced GFP signal of wild-type E. coli, primary screen, bacterial rRNA inhibitor project, GFP/RFP fluorescence, OD600, single point; E. coli WT GFP vs humanized-ribosome RFP mutants, 24 h; stronger effect = lower value; DMSO median 0, no signal -100; GFP signal change (wild-type ribosome), % (concentration not given with the values); 1.6% of 350,000 active; AID 720706, 2013;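 active means significant combined selectivity score with lowered wild-type GFP, culture density cut under 30%, mutant RFP and density less affected; inactive means any of these conditions unmet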; further: one replicate is shown; some compounds called inactive have numbers as strong as hits
Calb FLC = C. albicans growth inhibition with fluconazole, primary screen, CaCi-2 strain, Alamar Blue fluorescence; C. albicans CaCi-2 (fluconazole-resistant clinical isolate) + fluconazole, 48 h; growth inhibition, % (concentration not given with the values); 0.57% of 300,000 active;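 active means most replicates above 75%; inconclusive means exactly half above 75%; inactive means most below 75%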;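 further: all wells also contain fluconazole at 8 µg/ml as a sub-toxic cotreatment; 0% = median of DMSO wells and 100% = median of geldanamycin control wells; wells of about 8 µL received 7.5 nL stock; the first replicate is given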
Vif A3G = inhibitors of Vif binding to APOBEC3G peptide, primary screen, biochemical, TR-FRET, GST-Vif 1-94, biotin-A3G peptide, dose response retest (AID 1117319); Virion infectivity factor (Human immunodeficiency virus type 1 group M subtype B (isolate …; TR-FRET GST-Vif / biotin-A3G peptide binding; higher % means a stronger effect; test concentration not given here; strong numbers were not always called active; inhibition, %, or IC50 in µM where a hit was titrated; 0.57% of 260,000 active;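 active means above the screen mean plus three standard deviations and confirmed in dose response; inconclusive means results disagree or hit not tested in dose response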;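 further: Vif residues 1-94 fused to GST binding biotinylated APOBEC3G peptide 110-148; 0% = full assay without inhibitor and 100% = GST in place of GST-Vif; retest series ran down from 100 µM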
RanGTP-Impb inh = inhibitors of RanGTP-importin-beta interaction, primary screen, biochemical, FRET, CFP-Ran, YFP-importin-beta, homogeneous; Ran GTPase (GTP-bound) - importin-beta complex; cell-free CFP-Ran/YFP-importin-beta FRET ratio; inhibition, % (test concentration not listed); 1.1% of 300,000 active;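 active means most replicates above 15%; inconclusive means exactly half above 15%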;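 further: 0% = DMSO wells and 100% = Ran loaded with GDP instead of GTP; wells of about 40 µL received 100 nL stock; the first replicate is given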
Bfl-1 A1 inh = caspase 3/7 activation in MEF A1-2A-BIM cells, primary screen, A1 inhibitor project, cell-based, luminescence, HTS. AID 2462, 2010. 0.066% of 330,000 active. Caspase-Glo 3/7 luminescence, 3 h; percent of clofoctol response, vehicle zero. caspase activation, % (concentration not given with the values);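 active means over half of replicate activation scores above 10%, or exactly half above 10 with the replicate mean above 10; inconclusive means replicate mean below 10 yet half the replicates above 10; inactive means over half of replicates below 10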;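 further: wells of about 30 µL received 50 nL stock; many hits fall short of the cut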
MLL AF4-AF9 inh = inhibitors of AF4 peptide binding to AF9, primary screen, biochemical, AlphaScreen, biotin-AF4 peptide, FLAG-AF9, single point. Protein AF-9 (Homo sapiens), P42568. inhibition, % at 10 µM. 0.47% of 350,000 active;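 active means every replicate reaching a set inhibition limit, whatever the replicate mean, cut at about 25% in these data; inconclusive means mean inhibition reaches that limit but some replicates miss it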;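 further: 0% = plate neutral control median and 100% = total signal loss; the record names both 10 and 1 µM as test concentration; the first replicate is given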
Target sequence (P42568 whole entry, looked up): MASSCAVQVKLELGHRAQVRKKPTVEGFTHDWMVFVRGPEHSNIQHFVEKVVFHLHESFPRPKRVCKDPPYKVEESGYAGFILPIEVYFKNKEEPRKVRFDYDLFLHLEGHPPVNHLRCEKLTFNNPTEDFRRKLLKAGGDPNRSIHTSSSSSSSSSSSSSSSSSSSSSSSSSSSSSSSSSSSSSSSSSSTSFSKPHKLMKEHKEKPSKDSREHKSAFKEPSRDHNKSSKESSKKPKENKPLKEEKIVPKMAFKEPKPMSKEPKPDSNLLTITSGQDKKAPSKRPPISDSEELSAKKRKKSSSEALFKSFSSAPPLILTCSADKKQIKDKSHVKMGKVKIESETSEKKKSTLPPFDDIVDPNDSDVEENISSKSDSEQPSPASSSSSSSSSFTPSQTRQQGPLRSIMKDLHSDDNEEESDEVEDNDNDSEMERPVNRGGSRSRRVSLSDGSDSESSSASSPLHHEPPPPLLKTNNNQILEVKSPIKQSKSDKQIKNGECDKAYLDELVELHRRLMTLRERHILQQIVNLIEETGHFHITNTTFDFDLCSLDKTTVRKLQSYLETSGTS
Ecoli rRNA inh OD600 = recorded beside Ecoli rRNA inh, whose call it bears; OD600 change, %; measured here: OD600 growth;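 optical density of the mix in the first replicate; 0 = DMSO median and -100 = no signal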
Ecoli rRNA inh RFP = further read-out of Ecoli rRNA inh, marked with its call; RFP signal change, %; measured here: RFP humanized mutant strains;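 first replicate; 0 = DMSO median and -100 = no signal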
* marks the source's active call; other numbers are inactive results; ? = inconclusive; . = not tested or not shown; & = joins results of further samples. The list is partial. The share of hits here may be higher or lower than overall.

SMILES	T cruzi repl	Beta cell apopt	Ecoli rRNA inh	Ecoli rRNA inh OD600	Ecoli rRNA inh RFP	Calb FLC	Vif A3G	RanGTP-Impb inh	Bfl-1 A1 inh	MLL AF4-AF9 inh
O=C(NCc1ccc2c(c1)OCO2)c1ccc(NS(=O)(=O)c2ccc3c(c2)OCCO3)cc1	-3	3	-1	-10	11	-10	8%&21%	2.9	-0.1	.
Cc1noc(C(F)(F)F)c1C(=O)NNC(=O)c1cccc(C(F)(F)F)c1	5	1	0	-10	-1.2	-8	?	0.6	-0.9	0.8
O=C(O)CCC(=O)Nc1cccc2cccnc12	-4	.	-2	-3	0.0	44	17%	9.0	0.6	0.1
Cc1cc(SCC(=O)N2CCCC2=O)nc2c(C)cccc12	2	-3	-3	-2	1.6	-1	-22%	.	0.1	-1.1
CCOC(=O)c1cc(C)nc(Sc2ccc(C)cc2)c1C#N	-7	.	-21	-21	-1.0	4	-8%	5.3	-0.6	1.7
O=C(CCSCc1ccccc1F)N1CCN(c2ccccn2)CC1	7	3	-20	-14	-2.7	-3	-1%	-2.0	0.1	3.7
CC(C)NC(=O)NC(=O)COC(=O)c1ccc(NC(=O)CC#N)cc1	12	-3	.	.	.	-20	22%	0.3	0.2	.
Cc1ccc(S(=O)(=O)N2CCC(C(=O)NCc3cccnc3)CC2)cc1	1	0	10	7	-0.7	33	-3%	-0.1	-0.3	1.2
CCC(C)NC(=O)C1CCN(C(=O)c2ccccc2)CC1 (stereo not given)	.	-7	13	6	2.8	.	2%	.	-0.1	-0.1
O=C(Nc1ccn(Cc2c(F)c(F)c(F)c(F)c2F)n1)c1ccc(COc2ccccc2Cl)cc1	?	-2	.	.	.	-1	-2%	-3.3	0.7	.
O=C(/C=C/c1ccc(Cl)cc1)NCc1ccncc1	-11	0	.	.	.	5	.	1.8	1.4	.
Cc1cccc(C)c1OCC(=O)Nc1ccccc1C(F)(F)F	-5	-6	1	4	-1.1	-29	-7%	-1.9	0.4	-5.6
CCOC(=O)c1[nH]c2ccc(OC)cc2c1NC(=O)CCN1CCSCC1	6	-8	-1	5	-4.7	-15	-2%	1.1	1.2	2.2
CC(C)(C)n1nnnc1C(c1cccnc1)N(Cc1ccccc1)Cc1ccco1 (stereo not given)	14	-3	.	.	.	6	9%	7.0	1.2	.
Cc1ccc(NC(=O)CCn2cnc3ccccc3c2=O)cc1	7	-3	-12	-19	-0.9	-4	.	?	-2.7	-0.1
COc1ccc(NC(=O)CN(C)S(=O)(=O)c2ccc3c(c2)CC(C)N3C(C)=O)c(OC)c1 (stereo not given)	-27	2	9	-3	1.4	1	-1%	-0.7	-0.5	0.4
CN1CCN(CC#Cc2ccccc2)CC1CCO (stereo not given)	-3	-4	0	4	0.3	-5	.	1.0	0.4	2.6
CSCC[C@H](NC(=O)Cc1c(C)c2cc3c4c(oc3cc2oc1=O)CCCC4)C(=O)O	-2	-5	-9	-11	-5.3	-4	-9%	-1.5	-2.5	-0.3
CCn1c(=O)c(C(=O)Nn2c(C)nc3ccccc3c2=O)c(O)c2ccccc21	2	-2	.	.	.	9	5%&-4%	1.9	-0.1	.
O=C(NCCN1C(=O)S/C(=C\c2ccccc2)C1=O)C1CCN(S(=O)(=O)c2cccs2)CC1	3	-5	.	.	.	-4	-9%	2.6	-1.3	.
C=CCc1cccc(/C=N/NC(=O)C(=O)Nc2ccc(C)cc2)c1O	4	.	31	21	0.6	-4	-4%	-3.6	0.1	-0.6
COc1cccc(N(C(=O)CCl)C(C(=O)NCCc2ccccc2)c2cccs2)c1 (stereo not given)	30	2	.	.	.	4	.	2.9	1.5	.
O=S(=O)(NCCOc1cccc2cccnc12)c1ccc(F)cc1	2	-5	-21*	-16*	1.4*	-11	23%	0.9	?	-0.9
Cn1nccc1C(=O)Oc1cccc(/C=N/NC(=O)c2ccccc2O)c1	6	2	-1	5	-2.1	17	2%	-4.9	-6.2	0.0
CCCc1c(C)nc2c(Br)cccc2c1Cl	-15	4	12	-4	-2.3	-5	-14%	2.4	0.8	-2.1
COc1ccc(-c2cn3c(C)c(C(=O)Nc4ccncc4)sc3n2)cc1	42	16	-7	-16	-2.4	6	-6%	1.5	-0.1	-71
Cc1ccc(NC(=O)NCC2CCN(Cc3cccc(Cl)c3)CC2)c(Cl)c1	46	2	15	1	3.1	-4	-8%	?	0.5	-6.9
COc1ccc(C=C2C=C(C(C)(C)C)C(=O)C(C(C)(C)C)=C2)cc1OC	75*	-4	-5	-9	-2.4	-5	.	1.7	11*	22
CN(CC(=O)NNC(=O)CNC(=O)c1cccs1)S(=O)(=O)c1ccc(Cl)cc1	-11	-8	9	4	-0.7	10	0%	-1.9	-0.1	-2.0
CC(CCc1ccccc1)NC(=O)C(C)OC(=O)c1ccco1 (stereo not given)	-1	-6	12	-5	4.3	-4	3%	-0.6	-0.1	-1.2
COc1ccc(NC(=O)c2cc(-c3cccc(OC)c3)on2)cc1	8	1	12	10	4.2	-5	2%	0.4	-0.5	-22
COc1cc(C2CC(=O)c3cnc(N4CCN(Cc5ccccc5)CC4)nc3C2)cc(OC)c1OC (stereo not given)	0	15	.	.	.	-9	7%	3.3	-0.1	.
Cc1ccc2[nH]c(=O)c(CN(CC3CCCO3)S(=O)(=O)c3c(C)ccc4nsnc34)cc2c1 (stereo not given)	1	.	.	.	.	-18	5%	?	1.2	.
COC(=O)c1ccc(CN2CCCCC2)cc1	-1	0	18	11	0.9	-8	-4%	-1.9	0.7	-3.8
CCOC(=O)N1CCC(NC(=O)C2=CCN(S(=O)(=O)c3ccccc3)CC2)CC1	1	2	5	3	4.5	-3	24%	0.8	0.0	-2.6
COc1ccc(NC(C)=O)cc1CP(=O)(c1ccccc1)c1ccccc1	-4	1	1	-6	0.5	5	-2%	3.1	0.1	-3.6
CC(=O)c1ccc(OCC(O)COc2ccc(C(C)=O)cc2)cc1	5	3	.	.	.	?	26%	-1.8	-0.3	.
CC(Oc1ccccc1)C(=O)N=C1SC2CS(=O)(=O)CC2N1Cc1ccccc1 (stereo not given)	16	-2	4	-10	-5.2	-5	-5%	0.8	-2.0	-7.4
CCC(C)n1c(SCC(=O)Nc2cc(C)on2)nc2ccccc2c1=O (stereo not given)	-6	4	.	.	.	4	4%	?	-0.2	.
Clc1ccc(-c2csc(N3CCN(c4ccccc4)CC3)n2)cc1	7	-5	.	.	.	10	-8%	-0.8	-0.2	.
CC1CC(C)(C)NC(=S)N1CCCC(=O)Nc1ccc(Cl)cc1 (stereo not given)	10	6	-11	-16	0.8	-9	-1%	-1.1	-0.2	5.0
COc1ccc(-n2ncc(C(C)NS(=O)(=O)c3ccc(C)s3)c2C)cc1 (stereo not given)	-8	-9	-3	-13	-0.3	1	6%	-2.5	0.2	0.7
O=C(NCC1COCCO1)c1ccc2nc(Cc3cccc(Cl)c3)oc2c1 (stereo not given)	4	.	2	2	2.4	11	8%	3.9	0.0	-0.4
COc1cccc(-c2ccc(NC(=O)C3CCCN(Cc4cnc(N(C)C)s4)C3)cc2)c1 (stereo not given)	44	.	-2	-8	5.0	2	-7%	2.2	-1.6	13
COC(=O)c1sccc1S(=O)(=O)Nc1ccc(N2CCCCC2)cc1	2	3	-16	-4	61	0	-2%	0.9	0.1	12
Cn1c(CCC(=O)OCC(=O)NCC(F)(F)F)nc(=O)c2ccccc21	5	4	9	15	-5.4	-2	-7%	3.3	0.0	-1.2
CC(NS(=O)(=O)c1ccc(OCC(=O)NCc2ccccn2)cc1)c1ccccc1 (stereo not given)	-11	4	5	9	1.0	-2	.	-0.5	0.1	-0.1
Cc1cccc(-n2cc(C(=O)O)c(=O)cc2C)c1	-4	-4	3	2	-3.5	-14	3%	7.3	0.4	-1.6
O=C(CCC(=O)OCC(=O)c1ccc([N+](=O)[O-])cc1)NC1CCCCC1	-3	-1	.	.	.	-1	1%	3.8	1.2	.
CN(C)c1ccc(C(C(=O)NC2CCCC2)N(Cc2cccnc2)C(=O)c2snc(C(N)=O)c2N)cc1 (stereo not given)	-14	4	-3	9	-0.8	-3	.	3.7	0.2	2.8
O=C(NC1CCCC1)C1CC(=O)N(c2ccc(F)c(Cl)c2)C1 (stereo not given)	-19	-3	2	2	0.6	-7	0%	6.7	-0.3	-0.6
COc1cccc(NC(=O)Nc2ccc(C(C)(C)C)cc2)c1	3	.	-59	-82	-21	14	-1%	6.5	.	-0.3
N#C/C(=C/c1ccc(F)cc1)c1nc(CCN2C(=O)c3ccccc3C2=O)cs1	-14	-4	.	.	.	?	20%	?	0.9	.
Cc1ccc(-c2nnc(C)c(N3CC(C)OC(C)C3)n2)cc1 (stereo not given)	-1	-7	.	.	.	-30	-2%	0.1	-0.5	.
Nc1n[nH]c2c1C1(CCCC1)Cc1ccccc1-2	6	-4	.	.	.	2	26%	5.6	0.4	.
COc1ccc(OCCC(=O)NC2=NCCS2)cc1	-2	1	.	.	.	-13	0%	-1.6	-0.7	.
COc1ccc(-n2c(Cn3c(=O)sc4ccccc43)nnc2SCC(=O)N2CCOCC2)cc1	.	-4	4	1	2.0	.	6%	.	0.5	?
CN1CCN(c2nc(N3CCN(CCO)CC3)nc3ccccc23)CC1	16	.	.	.	.	-3	-2%	-2.8	-0.3	.
CCCc1noc2c1/C(=N\O)CCC2	-10	-2	.	.	.	-10	-1%	?	-0.8	.
Cc1ccc(S(=O)(=O)N2CCC(C(=O)NNC(=O)C3CC3)CC2)cc1Cl	2	1	10	13	-1.9	-2	1%	3.9	0.0	-1.7
CC1CCN(c2c([N+](=O)[O-])c(=O)n(-c3ccccc3)c3ccccc23)CC1	12	-2	.	.	.	7	0%	-3.7	-0.1	.
Oc1ccc(/C=N/Nc2ccc(C(F)(F)F)cn2)cc1	8	-5	0	-7	-1.1	5	1%	4.2	0.2	4.4

Assay outcomes: PubChem, several laboratories
